2A StopGo = High Throughput Screening for Foot and Mouth Disease Virus Antivirals. Potency, µM (titrated, usually from 57.9 µM), for inactives: at the highest dose signal change, negative = less light. AID 1159524, 2015. human cells with a luciferase reporter of 2A StopGo recoding; control for the full effect not named in the record. 410,000 tested, 1.2% active; active = well fitted falling curve with a large enough effect; inconclusive = small, poorly fitted or top-dose-only effect; inactive = no such curve, though single readings can be large or run the other way; tested in HEK293T cells; note: % is set by controls: 0 for no effect and ±100 for the full control effect; nearly all actives have a fitted effect of over 45% in size; luciferase light after 4 h
SARS PLpro yeast = qHTS of Yeast-based Assay for SARS-CoV PLP. S. cerevisiae expressing SARS-CoV PLpro, growth rescue; control for the full effect not named in the record. Potency, µM (doses to about 32.9 µM), without a hit: top-dose activity, positive = growth rescue. 330,000 tested, 0.19% active; note: 0% is about no effect; nearly all actives have a fitted effect of over 55% in size; growth read by luminescence after 48 h
Cruzain Triton = qHTS Assay for Promiscuous and Specific Inhibitors of Cruzain (with detergent); Cruzipain (Trypanosoma cruzi), P25779; purified cruzain, Z-FR-AMC fluorescence, 0.01% Triton; Potency, µM, without a hit: max response, negative = inhibition, actives largely listed as inhibitors; 200,000 tested, 0.43% active; AID 1478, 2009; active = well fitted curve in the direction sought with a large enough effect; inconclusive = small, poorly fitted or top-dose-only effect, or another doubt; inactive = no such curve, though single readings can be large; an effect the other way counts as inactive or inconclusive;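 note: plate controls were neutral wells for no effect and buffer without enzyme for full effect; nearly all actives have a fitted effect of over 40% in size; top concentration of the series not given in the record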
Target sequence (P25779 123-467 limits assumed): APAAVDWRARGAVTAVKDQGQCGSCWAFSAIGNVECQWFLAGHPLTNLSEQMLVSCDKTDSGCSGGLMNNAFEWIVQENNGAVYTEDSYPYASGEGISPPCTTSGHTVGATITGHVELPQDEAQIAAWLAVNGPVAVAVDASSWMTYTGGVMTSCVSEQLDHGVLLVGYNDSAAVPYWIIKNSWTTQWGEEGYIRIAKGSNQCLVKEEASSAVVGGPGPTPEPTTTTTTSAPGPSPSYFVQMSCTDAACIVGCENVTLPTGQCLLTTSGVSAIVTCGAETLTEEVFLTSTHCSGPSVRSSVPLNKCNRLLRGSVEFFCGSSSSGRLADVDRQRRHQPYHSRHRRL
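Read-out: AMC fluorescence (360 nm excitation, 450 nm emission), four reads over 2 min, first-to-third difference used. Conditions: cruzain 1.5 nM, Z-FR-AMC 2 uM, pH 5.5 acetate, 5 mM DTT, 0.01% Triton X-100.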
NS1 function inh = qHTS Assay for Inhibitors of Influenza NS1 Protein Function; S. cerevisiae slowed by influenza A NS1, growth recovery by OD600; Potency, µM (titrated, usually from 46.1 µM), without a hit: top-dose activity, positive = more growth; 270,000 tested, 0.4% active; AID 2326, 2010; note: actives are rising curves; nearly all actives have a fitted effect of over 50% in size
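Read-out: OD600 growth recovery of NS1-expressing budding yeast. Cells grown overnight at 30C in -URA glucose medium, washed, resuspended and diluted 1:100 in 2% galactose assay medium, pH 6.0. Same strain lacking NS1 served as positive control.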
Cruzain noTriton = qHTS Assay for Promiscuous and Specific Inhibitors of Cruzain (without detergent) | Cruzipain (Trypanosoma cruzi), P25779 | purified cruzain, Z-FR-AMC fluorescence, no detergent | Potency, µM, inactives show max response, negative = inhibition, most hits filed as inhibitors | 200,000 tested, 2.3% active; active = well fitted curve in the direction sought with a large enough effect; inconclusive = small, poorly fitted or top-dose-only effect, or another doubt; inactive = no such curve, though single readings can be large; an effect the other way counts as inactive or inconclusive;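 note: plate controls were enzyme without inhibitor for no effect and buffer without enzyme for full effect; nearly all actives have a fitted effect of over 40% in size; top concentration of the series not given in the record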
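Purified cruzain at 1.5 nM, pre-incubated 15 min with compound at room temperature in 100 mM sodium acetate pH 5.5, 5 mM DTT, 0.00005% Triton X-100. Reaction started with 2 uM Z-FR-AMC; AMC fluorescence increase over 60 s gives rate.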
RE007 growth inh = qHTS Assay for Inhibitors of the HIV-1 protein Vpr. S. pombe RE007 Vpr strain, BacTiter-Glo ATP luminescence, 24 h; control for the full effect not named in the record. Potency, µM (highest dose often 92.2 µM), without a hit: top-dose activity change, negative = less growth. 360,000 tested, 0.21% active; active = well fitted falling curve with a large enough effect; inconclusive = small, poorly fitted or top-dose-only effect; inactive = no such curve, though single readings can be large or run the other way;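 note: % is set by controls: 0 for no effect and ±100 for the full control effect; nearly all actives have a fitted effect of over 50% in size; the assay follows cell death caused by Vpr and the record does not say whether a fall means rescue or toxicity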
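Fission yeast strain RE007, carrying one chromosomally integrated HIV-1 vpr copy, was seeded at OD 0.01 in PMG+AL medium with 23 nL pinned compound. After 24 h at 30 °C and 99% humidity, viability was read by BacTiter-Glo luminescence.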
LASV entry inh = qHTS for Inhibitors of binding or entry into cells for Lassa Virus. Potency, µM (doses to about 37.9 µM), without a hit: at the top dose activity change, negative = inhibition, hits mostly inhibitors. 300,000 tested, 1.2% active. AID 540256, 2011. Lassa virus pseudotype entry inhibition, cell reporter; control for the full effect not named in the record; active means well fitted inhibition curve with a large enough effect; inconclusive means small, poorly fitted or top-dose-only effect, or effect the other way; inactive means flat fitted curve, though single readings scatter; tested in HEK293 cells; note: % is set by controls: 0 for no effect and ±100 for the full control effect; nearly all actives have a fitted effect of over 50% in size; luciferase read-out
Marburg entry inh = qHTS for inhibitors of binding or entry into cells for Marburg Virus; Marburg virus pseudotyped entry inhibition, cell reporter; control for the full effect not named in the record; about a third of the inactives were read at about 46 µM; Potency, µM (titrated, usually from 37.8 µM), for inactives: top-dose activity change, negative = inhibition, most hits filed as inhibitors; 300,000 tested, 1.8% active; AID 540276, 2011; active = well fitted inhibition curve with a large enough effect; inconclusive = small, poorly fitted or top-dose-only effect, or effect the other way; inactive = flat fitted curve, though single readings scatter; tested in HEK293 cells; about a fifth of its hits are not listed in these tables; note: % is set by controls: 0 for no effect and ±100 for the full control effect; luciferase read-out
Numbers without * were called inactive; ? = inconclusive; · = not tested or not shown; & = joins results of further samples; [ ] = remark or other dose. Unless noted, calls come from the whole dose curve; as a rule, active means well fitted rising curve with a large enough effect; inconclusive means small, poorly fitted or top-dose-only effect; inactive means no such curve, though single readings can be large or run the other way. Potency is the fitted concentration of half-maximal effect.

Values run as follows: 2A StopGo, SARS PLpro yeast, Cruzain Triton, NS1 function inh, Cruzain noTriton, RE007 growth inh, LASV entry inh, Marburg entry inh
- COc1ccccc1NC(=O)c1c([N+](=O)[O-])cnn1C
  -9%, -6%, ·, 13%, ·, 5%, ·, ·
- O=C(CNC(=O)c1ccc(Br)cc1)NC1=NCCS1
  47%[activator], -4%, ·, -3%, ·, -3%, 13%, 17%[46.1 µM]
- COc1cc(/C=C/C(=O)NC2CCCCC2)cc(OC)c1OC
  13%, -5%, ·, 5%, ·, 17%, -18%, 1%
- CC(Oc1cccc(Cl)c1)C(=O)Nc1ccc(N2CCOCC2)cc1N1CCOCC1 (stereo not given)
  ?, -23%, ·, ·, ·, -7%, -22%, ?
- CCc1ccc(S(=O)(=O)Nc2c(C)nn(C)c2C)cc1
  ?, -9%, 2.7%, -9%, 0%, 6%, 0%, -4%
- c1ccc(-c2nn[nH]n2)nc1
  11%, -5%, ·, -4%, ·, 19%, ·, ·
- O=C(O)/C=C\C(=O)Nc1ccc(OCc2ccccc2)cc1
  31%[activator], -4%, ·, ·, ·, ?, 4%, -15%[46.1 µM]
- O=C(NCC(=O)N(c1ccc(F)cc1)C(C(=O)NCC1CCCO1)c1ccccc1)c1ccco1 (stereo not given)
  -2%, 16%, 0.5%, -6%, ?, 15%, -5%, 2%&2%
- COc1ccc(OCC(=O)N/N=C/c2ccc(N(C)C)cc2)cc1
  20%, -3%, ·, ·, ·, 11%, ?, ?
- COc1cc(NC(=O)c2cc3cc4cc(OC)ccc4nc3o2)cc(OC)c1
  -14%, ·, -0.4%, ·, -10%, ·, 2%[46.1 µM], ·
- Cn1c(=O)n(/N=C/c2ccccc2)c2ccccc21
  1%, -5%, -7.4%, 14%, -2%, 0%, 28%, 7%
- CNc1c(NS(=O)(=O)c2ccc(Cl)s2)c(=O)oc2ccccc12
  -15%, -2%, ·, 6%, ·, 21%, 1%, 1%[46.1 µM]
- COc1cccc(CNC(=O)CN(c2ccc(C(C)C)cc2)S(=O)(=O)c2c(C)noc2C)c1
  ?, 0%, -8.5%, 11%, 7%, 0%, 10%[46.1 µM], -15%&-15%[46.1 µM]
- COc1ccc(CN(CCC(c2ccccc2)c2ccc(OC(C)C)cc2)C(=O)CCl)cc1OC (stereo not given)
  4.5µM*, -4%, -7.8%, 2%, 27%, 7%, ?, ?
- CCc1ccccc1NC(=O)CCNS(=O)(=O)c1ccc2c(c1)CCCC(=O)N2
  0%, ·, -0.7%, ·, -8%, ·, 18%[46.1 µM], ·
- c1ccc2c(CN3CCCCCCC3)c[nH]c2c1
  -15%, -6%, 2.2%, -11%, -4%, 3%, -18%, ?
- O=C(O)c1c(NC(=O)c2cccc3ccccc23)sc2c1CCC2
  5%, -25%, -7.7%, -79%, ?, -10%, -23%, -2%
- COc1ccc(N2CCN(Cc3nc4c(c(=O)[nH]c(=O)n4C)n3CC(C)=O)CC2)cc1
  -7%, -15%, 3.3%, 1%, 2%, -9%, ·, ·
- O=CNc1c(Cl)cc2c(c1Cl)Cc1cc([N+](=O)[O-])ccc1-2
  14%, ·, ·, ·, ·, -6%, 0%, ?
- Cc1cccc(NS(=O)(=O)c2cc(C(=O)N3CCCCCC3)ccc2C)c1
  29%, -4%, ·, 5%, ·, -3%, -25%, -12%
- O=C(O)COCC(=O)N1CCc2c([nH]c3ccccc23)C1C(F)(F)F (stereo not given)
  -14%, 1%, ·, 0%, ·, -3%, ·, ·
- Cc1ccc2c(CSc3nc4nc(C)cc(C)n4n3)cc(=O)oc2c1
  1%, -3%, -5.6%, -5%, ?, -17%, 3%, -2%
- Cc1nc2ccccc2n1CCOc1ccccc1
  ?, 5%, ·, 0%, ·, -12%, 20%, ?
- C=CCOC(=O)C1=C[C@@H](C2CCCCC2)C[C@@H](OCc2ccc(CO)cc2)O1
  -4%, -4%, ·, 9%, ·, -15%, ·, ·
- Cc1cccc(C)c1Nc1nnc(SCc2cc([N+](=O)[O-])cc3c2OCOC3)s1
  ?, -3%, 1.5%, -5%, ?, 18%, -3%, ?
- CCOc1ccccc1N(C)C(=O)c1cn(CC)c(=O)c2cc(OC)c(OC)cc12
  -6%, 0%, ·, -2%, ·, 0%, 29%[46.1 µM], 7%[46.1 µM]
- COCCn1c(=N)c(C(=O)NCC2CCCO2)cc2c(=O)n3ccccc3nc21 (stereo not given)
  -22%, ·, ?, ·, ?, ·, 18%[46.1 µM], -36%[46.1 µM]
- CN1CCN(C(=O)CCc2nc(-c3ccc(Cl)cc3)no2)CC1
  -12%, -1%, ·, 2%, ·, 4%, 21%[46.1 µM], -2%[46.1 µM]
- O=C(/C=C/c1ccccc1)NCc1ccc2c(c1)OCO2
  24%, 0%, ·, 0%, ·, 6%, -21%[46.1 µM], 7%[46.1 µM]
- CCOC(=O)C1=C(Cc2ccc(F)cc2)C(=O)c2ccccc2C1=O
  ?, -34%, -6.8%, -187%, -18%, ?, ?, ?
- CCOc1ccc(N(CC(=O)NCc2cccs2)S(=O)(=O)c2c(C)noc2C)cc1
  8%, -4%, -8.0%, -5%, 8%, 3%, ·, 5%
- O=C(CN1CCN(Cc2ccccc2Cl)C1=O)NC1CCCCCCC1
  -14%, 3%, 1.4%, -11%, -1%, 13%, 7%, -27%
- NC(=O)C1CCN(C(=O)c2cc3n(n2)C(C(F)(F)F)CC(c2ccco2)N3)CC1 (stereo not given)
  -12%, 6%, 0.8%, -4%, 8%, 23%, ·, ·
- NS(=O)(=O)c1cc(C(=O)N=Nc2c(O)[nH]c3ccccc23)ccc1Cl
  -11%, 0%, ·, 1%, ·, 3%, 0%, -14%
- CCOC(=O)c1c(NC(=O)c2cc3n(n2)C(C(F)(F)F)CC(c2cccs2)N3)sc(C)c1C (stereo not given)
  0%, 16%, -5.9%, -1%, 6.3µM*, -17%, -19%, 9%
- Cc1nn(CC(=O)c2ccc(Cl)cc2Cl)c(C)[n+]1N
  -9%, -6%, -2.1%, 6%, -4%, 0%, 0%, 0%
- Cc1cccc(C(=O)Nc2sc(-c3ccccc3)cc2C(=O)O)c1
  41%[activator], -1%, ·, -35%, ·, ?, ·, ·
- CCCc1[nH]nc2c1C(c1ccc(OC(=O)c3ccco3)cc1)C(C#N)=C(N)O2 (stereo not given)
  21%, -1%, -1.5%, -1%, -7%, 3%, -18%, ?
- COc1cc2c(cc1OC)C(C(=O)N1CCCC1)C(c1ccccc1F)N(C)C2=O (stereo not given)
  15%, 5%, 4.0%, -28%, -4%, -1%, 12%, ?
- CCn1cc(CN2CCN(Cc3ccc(OC)c(C)c3C)C(CCO)C2)c(C)n1 (stereo not given)
  9%, -1%, ·, 5%, ·, -1%, ·, ?
- CN(C)c1ccc(/C=C/C#N)cc1
  16%, 0%, ·, -4%, ·, ?, ·, ·
- CCCN(CC(=O)Nc1ccc(F)c(F)c1F)C(=O)CCc1nc2ccccc2c(=O)[nH]1
  -9%, -3%, ·, ·, ·, -9%, 9%, 13%
- CCNC(=S)N1CCC(n2cnc3ccccc32)CC1
  -13%, 1%, ·, 4%, ·, -2%, ·, ·
- Cc1cc(OCC(O)CN2CCN(c3cccc(Cl)c3)CC2)ccc1Cl (stereo not given)
  -19%, ·, -7.1%, ·, -5%, ·, 13%[46.1 µM], 1%[46.1 µM]
- C=CCOc1c(CNn2nnnc2N)cccc1OC
  -15%, 4%, 0.0%, 19%, -9%, 6%, 9%, -6%
- O=C(C1CCC(Cn2c(=S)[nH]c3ccccc3c2=O)CC1)N1CCN(c2ccccc2)CC1 (stereo not given)
  -16%, ·, ·, -10%, ·, -14%, 4%, ?
- CCC(C)(C)n1nnnc1C(c1cccnc1)N1CCCC(C)C1 (stereo not given)
  1%, -1%, ·, 1%, ·, 4%, ·, ·
- COc1ccccc1N1CCN(S(=O)(=O)c2ccc3c4c(cccc24)C(=O)N3C)CC1
  ·, 3%, -3.2%, 28%, ?, ·, ·, ·
- COc1ccc(OC)c(NC(=O)COC(=O)Cc2ccc(-c3ccccc3)cc2)c1
  -24%, -5%, -7.9%, -3%, 11%, 3%, 1%, 0%
- Cc1ccc(C)c(S(=O)(=O)Nc2ccc(O)c(C(=O)O)c2)c1
  -2%, -9%, ·, ·, ·, -5%, 8%, 1%[14.2 µM]

(listing goes on)
Values run as follows: 2A StopGo, SARS PLpro yeast, Cruzain Triton, NS1 function inh, Cruzain noTriton, RE007 growth inh, LASV entry inh, Marburg entry inh
- Cc1ccc(NC(=O)Cn2c(SCc3cccc(F)c3)nc3ccncc32)c(C)c1
  -10%, ·, -22%, ·, -3%, ·, 21%[46.1 µM], -13%[46.1 µM]
- N/C(Cc1ccc([N+](=O)[O-])cc1)=N\OC(=O)COc1ccccc1Cl
  20%, -17%, -7.4%, -8%, -12%, 6%, 6%, 21%
- CCOc1ccc(OCC(=O)Nc2ccc(OC)cc2)cc1
  11%, -2%, -0.4%, -12%, -3%, 8%, -9%, 2%
- COc1ccc(-n2nnc3c(=O)n(Cc4ccccc4C)cnc32)cc1
  15%, 12%, 3.6%, 12%, ?, -5%, ?, 17%

Bioassay records: PubChem BioAssay, National Center for Advancing Translational Sciences (NCATS)
